GIRK2 activ = GIRK2 channel activation. HEK293-GIRK2 thallium flux, Thallos fluorescence. AID 1259325. calls only for hits at 25 µM. hit rate 0.05% among 63,000;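 active = among the strongest 0.2% of first-round signals and kept after retests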;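 note: first round at about 10 µM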
Target sequence (P48051 whole entry, looked up): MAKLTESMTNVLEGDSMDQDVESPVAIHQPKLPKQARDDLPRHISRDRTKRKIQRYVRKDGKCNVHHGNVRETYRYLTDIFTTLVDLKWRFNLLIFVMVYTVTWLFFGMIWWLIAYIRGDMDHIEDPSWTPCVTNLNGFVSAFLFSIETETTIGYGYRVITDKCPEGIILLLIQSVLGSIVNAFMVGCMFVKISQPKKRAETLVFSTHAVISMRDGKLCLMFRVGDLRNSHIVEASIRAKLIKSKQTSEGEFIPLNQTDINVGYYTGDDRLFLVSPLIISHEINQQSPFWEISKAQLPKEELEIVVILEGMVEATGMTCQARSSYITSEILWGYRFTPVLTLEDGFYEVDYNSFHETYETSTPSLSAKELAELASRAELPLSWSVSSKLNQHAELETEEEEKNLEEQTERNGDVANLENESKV
Calls only; i = inactive. This is a subset (hit frequency here may not be typical).

SMILES	GIRK2 activ
CCOC(=O)c1ccc(NC(=O)CSC2=NNC3C4CC(c5ccc(F)cc5)NN4C=CN23)cc1 (centres undefined)	i
O=C(CCCCCn1c(=O)[nH]c2ccsc2c1=O)NCCc1ccc(Cl)cc1	i
COc1cc2nc(SCC(=O)NCC3CCCO3)n3nc(-c4ccccc4)nc3c2cc1OC (centres undefined)	i
O=C(c1ccccn1)N1CCN(c2cc(Nc3ccccn3)ncn2)CC1	i
COc1ccc(-c2nc(C#N)c(N3CCN(C(=O)c4ccccc4Cl)CC3)o2)cc1	i
O=C(Nc1cc(-c2cccs2)nn1-c1nc(-c2ccccc2)cc(=O)[nH]1)C1CCCCC1	i
OC(COc1cccc2ccccc12)CN1CCN(Cc2ccc3c(c2)OCO3)CC1 (centres undefined)	i
CCCn1c(Cc2ccc(OC)c(OC)c2)nc2ccccc21	i
Cc1cc(NC(=O)C2CCN(C(=O)Cc3cn(C)c4ccccc34)CC2)no1	i
O=C(c1nnn(-c2ccccc2Cl)c1-c1ccccn1)N1CCN(c2ncccn2)CC1	i
Cc1cc(C(=O)N2CC(C(=O)NCC3CCCO3)C2)no1 (centres undefined)	i
CC(=O)Nc1ccc(Nc2c(C(=O)N3CCCCCC3)cnc3nc(C)ccc23)cc1	i
CCOc1ccc(-c2noc(Cn3c(=O)n(CC4CCCO4)c(=O)c4ccccc43)n2)cc1OC (centres undefined)	i
Cc1nn(C(C)CC(=O)N2CCN(S(=O)(=O)c3ccccc3)CC2)c(C)c1Br (centres undefined)	i
O=S(=O)(NCCN1CCN(c2ccc(Cl)cc2)CC1)c1cccs1	i
COc1ccccc1NC(=O)CN1CCc2[nH]c3ccccc3c(=O)c2C1	i
O=C(NC1CC1)c1csc(-n2cccc2)n1	i
O=C(NCCc1ccccc1)c1ccoc1COc1ccccc1	i
CCCc1cc(N2CCN(c3cccc(C)n3)CC2)n2nc3nc(C)cc(C)c3c2n1	i
CCCn1c(=O)c2sc(N3CCCC3)nc2n(CC(=O)N2CCN(c3ccccc3)CC2)c1=O	i
COc1cc(/C=C2\Oc3cc(OC(C)C(=O)O)ccc3C2=O)cc(OC)c1OC (centres undefined)	i
Cc1cc(CNS(=O)(=O)c2c(C)noc2C)c(C)o1	i
COc1cccc(CSc2nc3c(sc4ncccc43)c(=O)n2Cc2ccccc2)c1	i
Cn1nnn(-c2ccc(NS(=O)(=O)c3ccc(OC(F)(F)F)cc3)cc2)c1=O	i
CC(=O)O[C@H]1C[C@@](O)(C(C)C)[C@@H]2[C@@H](OC(=O)c3ccc(O)cc3)CC(C)=CC[C@@]12C	i
Cc1ccc(C)c(S(=O)(=O)N2CCCC(c3nnc(CC(C)(C)C)o3)C2)c1 (centres undefined)	i
O=C(c1nc2ccccc2s1)N1CCC(Oc2ccc(C(F)(F)F)cn2)CC1	i
O=C(NCC1CCN(c2cnccn2)CC1)c1cc(Cl)ccc1Cl	i
CC(C)c1ccccc1NC(=O)c1nnn(-c2ccccc2)c1-c1ccccn1	i
CCCn1c(=O)c2c(nc3n2CCCN3c2ccc(Oc3ccccc3)cc2)n(C)c1=O	i
Cc1nc2ccccc2c(=O)n1-c1cccc(NC(=O)CCC2CCCCC2)c1	i
COc1ccc(-c2csc3ncnc(NN)c23)cc1	i
COc1cccc(CNC(=O)Cn2cnc3c(oc4ccccc43)c2=O)c1	i
Cc1cccc(NC(=O)CSc2ncc(S(=O)(=O)c3ccc(Cl)cc3)c(=O)[nH]2)c1	i
Cc1noc(C)c1CC(=O)NCCn1nc(C(F)(F)F)n(C)c1=O	i
O=C(CCc1nnc2c(N3CCCCC3)nc3ccccc3n12)NCc1ccccc1Cl	i
Cc1ccc(OCCN2C(=O)C(C)CNc3ccccc32)cc1C (centres undefined)	i
COc1ccc(-c2cn[nH]c2-c2ccc(OCCN3CC4CC(C3)c3cccc(=O)n3C4)cc2O)cc1 (centres undefined)	i
Cc1ccc(Nc2cc(C)nc(N3CCN(C(=O)c4ccc5c(c4)OCO5)CC3)n2)cc1	i
COc1ccc(Cl)cc1NC(=O)CSc1cc(-n2nc(C)cc2C)ncn1	i
CCOCC(=O)NC1CCCC(OC(=O)Nc2ccccc2)C1 (centres undefined)	i
COCCn1c(=O)c2c(nc3n2CC(C)CN3c2ccc(OC)cc2OC)n(C)c1=O (centres undefined)	i
CC(=O)NC(C)c1nc2ccccc2n1Cc1ccc(C)cc1 (centres undefined)	i
COc1nn(C)cc1C(=O)Nc1nnc(SCC(=O)NC2CCCC2)s1	i
CCN(C(=O)COc1nc(C)nc2ccccc12)c1ccccc1	i
COc1ccc(-n2c(C)c(C)n3c4c(=O)n(CC(C)=O)c(=O)n(C)c4nc23)cc1	i
O=C(Nc1nc2c(s1)COCC2)c1ccc2nsnc2c1	i
O=C(NCc1cccs1)c1csc(-c2cc3ccccc3[nH]2)n1	i
COc1ccc(CCNC(=O)NC(C)Cc2cccs2)cc1 (centres undefined)	i
Cc1oc2c3c(ccc2c(=O)c1-c1ccc(Cl)cc1)OCN(CC1CCCO1)C3 (centres undefined)	i
CCOc1ccc(N2CC(C)Cn3c2nc2c3c(=O)n(CC(C)C)c(=O)n2C)cc1 (centres undefined)	i
O=C(CCc1nc2sc3c(c2c(=O)[nH]1)CCCCC3)N1CCN(Cc2ccccc2)CC1	i
O=S(=O)(Cc1ccccc1Cl)N(CCc1cccs1)C1CC1	i
Cc1ccc(-n2nnnc2CN2CCN(C(=O)NCc3ccc(F)cc3)CC2)cc1	i
Cc1cc(SCC(=O)N2CCCc3ccccc32)n2nc(C)c(-c3ccccc3)c2n1	i
O=C(CSc1nc2ccccc2o1)NCCCOc1cccc2cccnc12	i
COc1ccc(CC(C)(O)CNC(=O)C(=O)Nc2ccc3c(c2)OCO3)cc1 (centres undefined)	i
COc1ccc(Cl)cc1NC(=O)Nc1cnc(Oc2ccccc2)nc1	i
CCCCn1c(C(=O)Nc2ccc(Cl)cc2)cc2c(=O)n(C)c(=O)n(C)c21	i
COCCNC(=O)CSc1nc(-c2cc(OC)c(OC)c(OC)c2)[nH]c1-c1ccc(Cl)cc1	i
New compounds follow.
SMILES	GIRK2 activ
Cn1c(N2CCN(c3ccccc3)CC2)nc2c1c(=O)n(Cc1ccccc1)c(=O)n2C	i
COC(=O)c1ccccc1N(C)C(=O)c1cc2ccccc2oc1=O	i
Cc1ccc(OCc2occc2C(=O)N2CCOCC2)cc1	i
CCOC(=O)c1ccc(NC(=O)Cn2ccn3nc(-c4ccc(OCC)cc4)cc3c2=O)cc1	i
Cn1c(CN2CCN(C(=O)NC(c3ccccc3)c3ccccc3)CC2)nc2ccccc21	i
Cc1cccc(C(=O)NNC(=O)c2ccc(=O)n(Cc3ccc(Cl)cc3)c2)c1	i
O=C(CSc1ncn[nH]1)Nc1ccc(-c2nc3ccccc3s2)cc1	i
O=C(NCCN1CCN(c2ccc(Cl)cc2)CC1)c1cccs1	i
O=C(Cn1nc(-c2cccs2)c2sc(N3CCCC3)nc2c1=O)Nc1ccccc1F	i
Nc1c(C(=O)c2ccccc2)cnn1-c1ccc(F)cc1	i
CCC(C(=O)N1CCN(S(=O)(=O)C2CC2)CC1)c1ccccc1 (centres undefined)	i
COc1cc(NC(=O)COc2cc(C)nc(N3CCCCCC3)n2)cc(OC)c1OC	i
Cc1c(-c2noc(-c3ccc4cc[nH]c4c3)n2)nnn1Cc1ccccc1	i
COc1ncccc1C(=O)NCc1nc2ccccc2[nH]1	i
COc1ccc(Oc2cn[nH]c2-c2ccc(O)cc2O)cc1	i
CCC(C)NC(=O)CCn1c(=O)c2ccccc2n2c(SCC(=O)NCCC(C)C)nnc12 (centres undefined)	i
Fc1ccc(-n2cc(-c3noc(-c4ccc5cc[nH]c5c4)n3)nn2)cc1	i
CC(C)C(=O)Nc1c(-c2ccccn2)nsc1C(=O)NCc1cccs1	i
O=c1c(S(=O)(=O)N2CCCCC2)cccn1Cc1ccccc1Cl	i
O=C(NCCS(=O)(=O)N1CCN(Cc2ccccc2)CC1)c1ccc2c(c1)OCO2	i
COC(=O)Cn1c(=NC(=O)c2cc(C)no2)sc2c(C)cc(C)cc21	i
CNC(=O)Cc1ccc(-n2c(=O)c3ccccc3n(CC(=O)NCc3ccc(OC)cc3)c2=O)cc1	i
CCOC(=O)c1cnn2ccc(NC(=O)c3cc(C)cs3)cc12	i
Cc1ccc(S(=O)(=O)c2cnc(SCC(=O)Nc3ccccc3Cl)[nH]c2=O)c(C)c1	i
O=C(NC1CCSC1=O)c1ccc(OCc2ccc3ccccc3n2)cc1 (centres undefined)	i
Cc1ccc(-c2c(C#N)c(N)nc(SCC(=O)NCc3ccccc3)c2C#N)cc1	i
O=C(NCC1CCN(C(=O)c2ccoc2)CC1)c1cc(-c2ccccc2)on1	i
O=C(NCCc1nc(C2CC2)cc(C(F)(F)F)n1)c1ccc2c(c1)OCO2	i
Cc1ccc(-c2noc(-c3ccc(=O)n(CC(=O)Nc4cccc(C(F)(F)F)c4)c3)n2)cc1	i
CCCn1c(-c2ccccc2C)nc2c(c(=O)c3ccccc3n2C)c1=O	i
COc1ccc(CNC(=O)Cn2cnc3c(-c4ccc(Cl)cc4)csc3c2=O)cc1	i
CC(C)NC(=O)Nc1nc2c(s1)CN(C(=O)CCSc1ccccc1)CC2	i
CC(=O)Cn1c(=O)c2c(nc3n(-c4cccc(C)c4C)c(-c4ccccc4)cn23)n(C)c1=O	i
CC(C)(Oc1ccc(Cl)cc1)C(=O)N1CCN(C(=O)C2CC2c2ccc(F)cc2)CC1 (centres undefined)	i
CCOc1ccccc1NC(=O)Nc1cnc(N2CCN(C)CC2)nc1	i
Cc1nc(SCC(N)=O)c2oc3ccccc3c2n1	i
CC(=O)Nc1ccc(S(=O)(=O)N2CC(c3nc4ccc(C)cc4[nH]3)C2)cc1	i
O=C(CSc1ccc(N2CCCCCC2)nn1)Nc1ccc(Br)cc1	i
O=C(CNC(=O)c1c[nH]c2ccccc12)NCCC(c1ccccc1)c1ccccc1	i
O=C(c1cnc2ccccc2n1)N1CCC(Oc2cnccn2)CC1	i
COc1cc(NC(=O)CSc2ncc(S(=O)(=O)c3cccs3)c(N)n2)cc(OC)c1OC	i
COc1cccc(C2c3c(oc4ccc(Cl)cc4c3=O)C(=O)N2C)c1 (centres undefined)	i
COc1ccc(NC(=O)Cn2c(N)nc(C)cc2=O)cc1OC	i
O=C(COc1ccc2ccccc2c1)NCCn1ncccc1=O	i
Cc1cc(=O)[nH]c(-n2ncc(C(=O)NCCc3ccc(F)cc3)c2C)n1	i
COCCN1CCC(NC(=O)COc2ccccc2)CC1	i
COc1ccc(-c2c(NC(=O)c3ccccc3OC)oc3c(C)cccc3c2=O)cc1OC	i
CS(=O)(=O)c1ccc2[nH]cc(CC(=O)O)c2c1	i
CCCCS(=O)(=O)N1CCC(c2nnc(-c3ccccc3OC)s2)CC1	i
CCc1cccc(NC(=O)Cn2cc(-c3ccccc3)c3ncn(CC)c(=O)c32)c1	i
CS(=O)(=O)N1CCN(CCNC(=O)NCc2ccc(Cl)cc2)CC1	i
CS(=O)(=O)N1C2CCC1COC2	i
Cc1ccc(NC(=O)C(=O)NCc2ccccc2Cl)cc1F	i
CCOc1ccc(S(=O)(=O)NCC(C)(O)c2ccco2)cc1C (centres undefined)	i
Cc1nc2ccccc2n1CC1CCN(C(=O)c2ccc3nsnc3c2)CC1	i
O=C(CCc1csc(NC(=O)c2ccc(F)cc2)n1)Nc1ccc(F)c(F)c1	i
Cc1cc(C)c2sc(NC(=O)CCS(=O)(=O)Cc3ccccc3)nc2c1	i
COc1ccc2cc(CNc3ccc(C)cc3)c(=O)n(CC(=O)Nc3c(C)cccc3C)c2c1	i
Cc1cccc(NC(=O)c2cn(Cc3ccc(NC(=O)c4ccc(F)cc4)cc3)cn2)c1	i
COc1nn(C)cc1C(=O)Nc1nnc(SCc2ccccc2F)s1	i
(listing goes on)
SMILES	GIRK2 activ
Cn1c(-c2ccccn2)nn(CCNC(=O)COc2cccc3c2OC(C)(C)C3)c1=O	i
CCN1C(=O)c2[nH]nc(-c3ccccc3O)c2C1c1ccc(C(C)C)cc1 (centres undefined)	i
COc1cccc(N2CC(C)Cn3c2nc2c3c(=O)n(Cc3cccc(C)c3)c(=O)n2C)c1 (centres undefined)	i
O=S(=O)(c1ccc(Oc2ccccc2Cl)cc1)N1CCCCC1	i
CCOC(=O)Cn1nc(-c2ccccc2)c2cnc3cc4c(cc3c21)OCCO4	i
Cc1ccc(NC(=O)c2c(N)n(/N=C\c3ccncc3)c3nc4ccccc4nc23)cc1	i
Cc1nnc(SCC(=O)NCc2ccccc2Cl)c2c1cnn2-c1ccccc1	i
Cc1cccc(NC(=O)CSc2ncc(S(=O)(=O)c3ccc(Cl)s3)c(N)n2)c1C	i
O=C(C1CC1)N1CCN(c2ccc(-c3ccncc3)nn2)CC1	i

Ordered by molecular weight (smallest number first): some entries from above.
SMILES	GIRK2 activ
CS(=O)(=O)N1C2CCC1COC2	i
O=C(C1CC1)N1CCN(c2ccc(-c3ccncc3)nn2)CC1	i
Cc1ccc(NC(=O)C(=O)NCc2ccccc2Cl)cc1F	i
CCOc1ccc(S(=O)(=O)NCC(C)(O)c2ccco2)cc1C (centres undefined)	i
O=S(=O)(c1ccc(Oc2ccccc2Cl)cc1)N1CCCCC1	i
CCN1C(=O)c2[nH]nc(-c3ccccc3O)c2C1c1ccc(C(C)C)cc1 (centres undefined)	i
CS(=O)(=O)N1CCN(CCNC(=O)NCc2ccc(Cl)cc2)CC1	i
COc1nn(C)cc1C(=O)Nc1nnc(SCc2ccccc2F)s1	i
CCOC(=O)Cn1nc(-c2ccccc2)c2cnc3cc4c(cc3c21)OCCO4	i
Cc1nc2ccccc2n1CC1CCN(C(=O)c2ccc3nsnc3c2)CC1	i
CCCCS(=O)(=O)N1CCC(c2nnc(-c3ccccc3OC)s2)CC1	i
CCc1cccc(NC(=O)Cn2cc(-c3ccccc3)c3ncn(CC)c(=O)c32)c1	i
O=C(CCc1csc(NC(=O)c2ccc(F)cc2)n1)Nc1ccc(F)c(F)c1	i
Cc1ccc(NC(=O)c2c(N)n(/N=C\c3ccncc3)c3nc4ccccc4nc23)cc1	i
Cc1cccc(NC(=O)c2cn(Cc3ccc(NC(=O)c4ccc(F)cc4)cc3)cn2)c1	i
COc1cccc(N2CC(C)Cn3c2nc2c3c(=O)n(Cc3cccc(C)c3)c(=O)n2C)c1 (centres undefined)	i
COc1ccc2cc(CNc3ccc(C)cc3)c(=O)n(CC(=O)Nc3c(C)cccc3C)c2c1	i
Cc1cccc(NC(=O)CSc2ncc(S(=O)(=O)c3ccc(Cl)s3)c(N)n2)c1C	i

Source: PubChem
